# FPR ligand: human FPR ligand, with FPRL1 counter-screen; FPR-expressing cells, fluorescent ligand binding, flow cytometry; inhibition, %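 (tested at 6.7 µM)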; P21462; hit rate 0.74% among 24,000;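 also: 0% = buffer wells and 100% = receptor blocker peptide wells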
# Target sequence (P21462 whole entry, looked up): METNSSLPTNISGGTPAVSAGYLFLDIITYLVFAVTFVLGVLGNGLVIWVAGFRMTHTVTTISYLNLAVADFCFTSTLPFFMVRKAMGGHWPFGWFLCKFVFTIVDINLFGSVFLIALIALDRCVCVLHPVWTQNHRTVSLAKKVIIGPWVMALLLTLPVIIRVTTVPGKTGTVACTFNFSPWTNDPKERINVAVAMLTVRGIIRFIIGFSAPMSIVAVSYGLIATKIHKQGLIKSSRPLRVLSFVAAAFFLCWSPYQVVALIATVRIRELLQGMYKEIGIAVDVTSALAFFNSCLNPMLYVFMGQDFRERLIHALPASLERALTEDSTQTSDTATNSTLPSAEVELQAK
# VCAM-1 imaging: inhibitors of TNFa-induced VCAM-1 surface display, imaging, high-content imaging, pooled HUVEC, TNFa stimulus (AID 456); hit rate 0.2% among 10,000; HUVEC TNFa-induced VCAM-1 surface expression, immunofluorescence imaging; numbers were filed only for top-ranked candidate wells; inhibition, % at 5 µM, or IC50 in µM where a hit was titrated;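 active = top tenth filtered wells with inhibition above zero that passed visual or statistical confirmation; inactive = the rest, including hits rejected on review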;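 also: 0% = stimulated vehicle wells and 100% = unstimulated cells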
# VCAM-1 up imaging: enhancers of VCAM-1 display on endothelial cells, imaging, high-content imaging, pooled HUVEC, TNFa stimulus (AID 457); Pooled HUVEC, TNFa-induced VCAM-1 immunofluorescence imaging; hits of this screen are not shown here; calls only; hit rate 0.2% among 10,000;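 active = a top-ranked rise in VCAM-1 staining upheld on image or statistical review; inactive = the rest, including candidates rejected on review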;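 also: compounds tested at 5 µM in the well; cells exposed to compound for 24 hours before fixing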
# VCAM-1 down: suppression of endothelial VCAM-1 upregulation – cell-based, plate reader, pooled HUVEC, TNFa stimulus (AID 454). HUVEC TNFa-induced VCAM-1 surface immunofluorescence, plate reader; numbers were filed only for top-ranked candidate wells. inhibition, % at 5 µM. hit rate 0.2% among 10,000;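 active = compound among top-ranked inhibitors of TNF-induced VCAM-1 adhesion protein staining, with the hit upheld by image or statistical review; inactive = the rest, including hits rejected on review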;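 also: 0% = TNFa with vehicle and 100% = cells without TNFa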
# FPRL1 ligand: binds the human formylpeptide receptor-like-1 FPRL1 | P25090 | FPRL1-expressing cells, fluorescent ligand binding inhibition, flow cytometry | inhibition, %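 (tested at 6.7 µM)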 | hit rate 0.3% among 24,000 | AID 441;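 also: 0% = buffer alone and 100% = receptor blocker peptide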
# Target sequence (P25090 whole entry, looked up): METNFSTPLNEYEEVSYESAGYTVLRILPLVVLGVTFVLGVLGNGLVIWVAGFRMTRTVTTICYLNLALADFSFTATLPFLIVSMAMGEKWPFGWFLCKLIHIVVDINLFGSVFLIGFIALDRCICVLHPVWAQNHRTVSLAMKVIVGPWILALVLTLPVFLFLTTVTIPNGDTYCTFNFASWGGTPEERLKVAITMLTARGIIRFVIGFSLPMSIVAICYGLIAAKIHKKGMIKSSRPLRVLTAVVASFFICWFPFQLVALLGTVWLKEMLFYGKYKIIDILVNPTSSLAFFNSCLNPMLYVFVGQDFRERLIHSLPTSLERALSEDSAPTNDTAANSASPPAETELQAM
# * = called active by the depositor; i = inactive; · = no result given.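 The calls were made as follows, unless noted: active = mean above 30%; inconclusive = self-fluorescent; inactive = the rest.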 These rows are one share of the data. The share of hits here may be higher or lower than overall.
SMILES,FPR ligand,VCAM-1 imaging,VCAM-1 up imaging,VCAM-1 down,FPRL1 ligand
O=C(OCC#CCSc1nc2ccccc2s1)c1ccco1,-5,i,i,i,2
COC(=O)c1c(N)n(-c2cc(OC)cc(OC)c2)c2nc3ccccc3nc12,1,i,i,i,-10
O=C(CCN1C(=O)c2ccccc2C1=O)N1CCN(C(=O)c2ccccc2)CC1,-1,i,i,i,-1
CCOC(=O)c1ccccc1NC(=O)c1cc2sccc2n1C,-4,i,i,i,-6
O=C1C2CCCN2C(c2ccccc2F)N1c1ccc(F)cc1 (stereo unspecified),3,·,·,·,-5
COc1ccc(-n2c(=S)[nH]c3cc(C(=O)NCc4ccco4)ccc3c2=O)cc1OC,8,·,·,·,-5
Cn1c(SCC(=O)c2cc3ccccc3o2)nnc1-c1ccccc1,0,i,i,i,4
Cc1ccc(-c2nc(CS(=O)CC(=O)NCc3ccc(Cl)cc3)c(C)o2)cc1 (stereo unspecified),11,·,·,·,2
CC(C)Oc1ccc(N2CC(C(=O)Nc3ccccc3F)CC2=O)cc1 (stereo unspecified),3,i,i,i,-2
CCOC(=O)c1cccc(NC(=O)CS(=O)(=O)Cc2nc(-c3cccc(OC)c3)oc2C)c1,-2,i,i,i,-6
O=C(Cc1ccc(-n2cccc2)cc1)N1CCc2ccccc21,-1,·,·,·,3
COc1cccc(NC(=O)N(CCCN2CCOCC2)C(C)c2cc3cccc(OC)c3o2)c1 (stereo unspecified),-6,i,i,i,0
COC(=O)c1[nH]c(C)c(/C(O)=C2\C(=O)C(=O)N(CCCN3CCOCC3)C2c2ccccn2)c1C (stereo unspecified),38*,i,i,i,-2
COc1ccc(CCNC(=O)CSc2nnnn2-c2ccccc2OC)cc1OC,-1,i,i,i,-4
COc1nc(C)nc2c1sc(=S)n2C,-1,·,·,·,-2
CCN(c1ccccc1)c1cc(C)nc2nc(C)nn12,-2,·,·,·,0
CCC(C)NC(=O)CS(=O)Cc1nc(-c2cccc(C)c2)oc1C (stereo unspecified),-2,·,·,·,0
Cc1ccccc1CN1C(=O)C2(OCCCO2)c2ccccc21,2,·,·,·,3
O=C(c1ccc2nc(N3CCOCC3)sc2c1)N1CCC2(CC1)OCCO2,-6,·,·,·,11
CCN1CCN(C(c2cccs2)C(C)NC(=O)c2ccco2)CC1 (stereo unspecified),0,·,·,·,2
CCS(=O)(=O)N1CCCC(C(=O)NCc2cccc(OC)c2)C1 (stereo unspecified),-3,i,i,i,-1
CCC(=O)O[C@]1(C(=O)CCl)[C@@H](C)C[C@H]2[C@@H]3CCC4=CC(=O)C=C[C@]4(C)[C@@]3(F)[C@@H](O)C[C@@]21C,-4,78%*,i,i,1
O=C(CCC(=O)c1cccs1)NCc1ccccc1,-3,i,i,i,1
COc1ccc(C2=NOC(C(=O)Nc3ccc(C)cc3)C2)cc1OC (stereo unspecified),6,·,·,·,3
O=C(NCC1CCCO1)C1CCN(S(=O)(=O)c2cccc3nonc23)CC1 (stereo unspecified),2,·,·,·,0
COc1ccc(NC(=O)C(c2ccc(C)cc2)N(C)C(=O)c2cnccn2)cc1 (stereo unspecified),18,·,·,·,38*
COC(=O)C(C#N)C(=C1C(=O)CC(C)(C)CC1=O)c1ccc(O)cc1 (stereo unspecified),5,i,i,i,-9
CCOCC(=O)Nc1sc2c(c1C(=O)OCC)CCCC2,2,i,i,i,-12
Cc1c(NC(=O)CN2C(=O)C3C4C=CC(C4)C3C2=O)c(=O)n(-c2ccccc2)n1C (stereo unspecified),1,·,·,·,4
CN(C1CCS(=O)(=O)C1)S(=O)(=O)c1cccc2nsnc12 (stereo unspecified),5,i,i,i,4
CCOC(=O)N1CCN(CC(=O)c2c(C)[nH]c3ccccc23)CC1,2,i,i,i,-1
COc1ccc(C(=O)N2CCN(C3CCC(c4ccccc4)CC3)CC2)cc1OC (stereo unspecified),4,i,i,i,-1
O=c1cc(COn2nnc3ccc(C(F)(F)F)cc32)nc2sccn12,-5,i,i,i,4
O=C1C2CCCN2C(c2ccc(F)cc2)N1c1cccc(Cl)c1 (stereo unspecified),-4,·,·,·,-1
Cc1cccc(N2CCN(C(=O)Cc3c(C(=O)O)[nH]c4ccc(Cl)cc34)CC2)c1C,13,·,·,·,-15
CCOC(=O)C1=C(C)Nc2ncnn2C1c1cc(OC)ccc1OC (stereo unspecified),6,i,i,i,-2
O=C(NCc1cccs1)c1cc(-c2cccc(Cl)c2)on1,-1,·,·,·,-1
COc1cc2c(cc1OC)-c1nnc(-c3cccs3)n1C(C)(C)C2,-8,i,i,i,0
COc1ccc(NC(=O)CSc2nnc(Cn3c(=O)sc4ccccc43)n2C)cc1,1,·,·,·,1
CC(C)N=c1cc2n(-c3ccc(Cl)cc3)c3ccccc3nc-2cc1Nc1ccc(Cl)cc1,8,i,i,i,18
CC(C)(C)NC(=O)Nc1ccccc1C(N)=O,-15,i,i,i,-10
O=c1c2c(nc3c(-c4cccc5ccccc45)c[nH]n13)CCC2,-14,·,·,·,-1
Cc1ccc(-n2nnc3c(=O)n(Cc4cc(C)ccc4C)cnc32)cc1,11,·,·,·,5
C=CCn1c(SCc2cccc(C#N)c2)nnc1-c1ccccc1O,5,i,i,i,4
Cc1occc1C(=O)Nc1nnc(C2CCCCC2)s1,10,i,i,i,-2
CCCCOc1ccccc1NC(=O)Cn1c(-c2nonc2N)nc2ccccc21,-3,·,·,·,-22
Cc1ccc(N(C(=O)c2ccncc2)C2C=CS(=O)(=O)C2)cc1 (stereo unspecified),-1,i,i,i,7
O=C(CN1CCOc2ccccc21)N1CCC(Cc2ccccc2)CC1,2,·,·,·,0
CCOC(=O)N1CCC(Nc2c(NCCCN(C)Cc3ccccc3)c(=O)c2=O)CC1,-7,·,·,·,-2
O=C(O)CC1Sc2nc3ccccc3n2C1=O (stereo unspecified),-5,i,i,i,-3
COc1ccc(C(=O)CCC(=O)O)cc1,2,·,·,·,-10
CCn1c(=O)cc(OCC(=O)NCCCN2CCC(C)CC2)c2ccccc21,-2,·,·,·,2
CCCCN(CC)CCNc1c(NC2CCN(C(=O)OCC)CC2)c(=O)c1=O,-2,·,·,·,4
NC(=O)C1(N2CCCCC2)CCN(C(=O)c2ccc(C#Cc3ccccc3)o2)CC1,2,·,·,·,0
COc1cccc(OCC(O)CN2CCOCC2)c1 (stereo unspecified),-2,·,·,·,-4
CCCOc1ccc(OCCSc2ncccn2)cc1,-2,i,i,i,-8
CCCOc1c(OC)cccc1C1CC(=O)Nc2cc3c(cc21)OCCO3 (stereo unspecified),2,·,·,·,-4
Cc1sc2c(c1C)CN(Cc1ccco1)CN2C(=O)c1ccccc1,3,·,·,·,1
Cc1cc(-n2c(C)cc(C(=O)CSc3nnnn3-c3ccc(Cl)cc3)c2C)no1,7,i,i,i,2
NS(=O)(=O)c1cc2c(cc1Cl)NC=NS2(=O)=O,-10,i,i,i,6

# (list continues)
SMILES,FPR ligand,VCAM-1 imaging,VCAM-1 up imaging,VCAM-1 down,FPRL1 ligand
O=c1[nH]c(NCc2ccccc2)nc2c1CCCC2,-2,i,i,i,0
OC(COc1ccc2ccccc2c1)CN1CCN(c2ccc(F)cc2)CC1 (stereo unspecified),-5,·,·,·,-3
CCSc1nnc(NC(=O)CSc2nc3c(c(=O)n2-c2ccccc2OC)SCC3)s1,6,·,·,·,1
Cc1ccc(C(=O)C2=C(O)C(=O)N(CCCn3ccnc3)C2c2ccc(OC(C)C)cc2)o1 (stereo unspecified),65*,·,·,·,-2
COc1ccc(N2C(=O)C(Cl)=C(Nc3c(C)n(C)n(-c4ccccc4)c3=O)C2=O)cc1,0,i,i,i,1
CCOC(=O)c1ccc(NC(=O)CSc2ncccn2)cc1,-5,i,i,i,-3
Brc1ccc(-c2nnc3sc(CN4CCN(c5ccccc5)CC4)cn23)cc1,5,·,·,·,0
Cc1ccc(Cl)cc1N1CCN(C(=O)Cn2ccc3ccccc3c2=O)CC1,6,·,·,·,9
COc1ccccc1C1(CC(=O)N2CCOCC2)CCOC(C(C)C)C1 (stereo unspecified),-6,i,i,i,1
Cc1nn(C)c(C)c1S(=O)(=O)NCc1cccs1,-10,·,·,·,-3
COc1ccc2cc3cc(C(=O)NCC4CCCO4)oc3nc2c1 (stereo unspecified),5,i,i,i,4
O=C(Cn1cc2c(n1)CCCCC2)NC1CCN(Cc2ccccc2)CC1,-1,·,·,·,2
CCOC(=O)N1CCC(NC(=O)c2ccc3c(c2)N(CC)CCS3)CC1,4,i,i,i,0
O=C(CSc1nc2ccsc2c(=O)n1NC(=O)c1ccccc1)Nc1nccs1,2,i,i,i,0
COc1ccccc1C1C(C(N)=O)=C(C)Nc2nc(-c3ccccc3Cl)nn21 (stereo unspecified),-1,·,·,·,4
COc1ccc(CCNC(=O)CCCCn2c(=O)[nH]c3ccccc3c2=O)cc1OC,0,·,·,·,0
CCc1c(C)c2c(C)[nH]nc2oc1=O,4,·,·,·,9
Cc1noc(C)c1S(=O)(=O)N1CCN(Cc2ccc3c(c2)OCO3)CC1,-3,i,i,i,-7
CCOC(=O)C1=C(C)N(C)C(=O)NC1c1ccccc1OC (stereo unspecified),6,i,i,i,2
Cc1ccc(S(=O)(=O)Cc2ccc(C(=O)NCCCN3CCN(C)CC3)o2)cc1,2,i,i,i,2
Fc1cccc(NCc2cn3ccccc3n2)c1,-4,i,i,i,-1
C=CCn1c(-c2ccccc2)c[nH]c1=S,0,i,i,i,0
CCOC(=O)c1c(C)c(C(=O)NCc2cccnc2)c(C)n1C,2,·,·,·,-5
CCCn1c(C)cc(=O)c2cc(NC(=O)c3ccccn3)ccc21,-3,·,·,·,-4
O=c1[nH]c(SCc2ccccc2Cl)nc2c1CCCC2,0,i,i,i,-2
CCOC(=O)CCCCC(=O)c1[nH]c(=O)[nH]c1CSc1nc2ccccc2[nH]1,0,·,·,·,-2
O=c1c2cc(N3CCOCC3)ccc2[nH]c(=S)n1CCCN1CCCCC1,-6,i,i,i,6
CC(=O)NC(Cc1ccc(C)cc1)C(=O)NC1CCN(C(=O)c2cnccn2)CC1 (stereo unspecified),0,i,i,i,5
COCCNc1cc(C)nc2ccccc12,7,·,·,·,-9
CCOC(=O)Cc1cc(=O)n2[nH]c(C)c(C#N)c2n1,-15,·,·,·,-8
CCc1nnc(NC(=O)CSc2nnc3scc(-c4ccc(C)cc4)n23)s1,14,i,i,i,6
COc1ccc(C2N(c3ccc(F)cc3)C(=O)C3CCCN32)cc1 (stereo unspecified),-3,·,·,·,0
COc1ccc(S(=O)(=O)N2CCCC(C(=O)N3CCCCCC3)C2)cc1 (stereo unspecified),2,i,i,i,4
CN1C(=O)CSc2ccc(NC(=O)N3CCN(c4ccccn4)CC3)cc21,-1,72%,i,i,-2
O=C(CSc1ccc2nnc(-c3ccccc3)n2n1)N1CCN(c2ccccc2)CC1,1,i,i,i,8

# Assay outcomes (PubChem)
